quorum sensing: Vibrio cholerae quorum sensing activators, luminescence (AID 686977); luminescence at 50 µM unless noted; hits with a dose series show EC50 in µM; V. cholerae quorum sensing reporter, luminescence, 6 h; higher luminescence means a stronger effect; most inactives read 0; 9,400 tested, under 10 active;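 active means light above mean plus 3 SD and confirmed in a dose series; inconclusive means above that limit without a clear retest; inactive means below it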;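 further: raw light counts without normalisation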
An asterisk follows results filed as active; ? = inconclusive; [ ] = dose if it differs, or a comment. A portion of the library; count on the stated rates, not on these rows.

SMILES	quorum sensing
Cc1ccccc1OCc1nnc2n1CC(C)S2 (stereo not drawn)	0
CCC1CCCCN1c1nc(-c2ccncc2)nc2ccccc12 (stereo not drawn)	40
CCCCn1nc(NC(=O)c2cccs2)c2cc3ccccc3nc21	0
O=C(NCc1ccco1)C1CCN(S(=O)(=O)c2cccc3cccnc23)CC1	40
COc1cccc(C2C(C#N)=C(N)OC3=C2C(=O)CCC3)c1OC(=O)c1ccco1 (stereo not drawn)	0
COC(=O)c1sc(N2C(=O)c3oc4ccccc4c(=O)c3C2c2cccs2)nc1C (stereo not drawn)	280
COC(=O)c1ccc(Oc2nc(Nc3ccc(F)cc3)nc(N3CCCC3)n2)cc1	?
CCn1c(C(Cc2ccccc2)NC(=O)COC)nc2ccccc21 (stereo not drawn)	40
Cc1ccc2nc(SCc3ccc([N+](=O)[O-])cc3)[nH]c2c1	0
Cc1ccnc(N2CCC(C(=O)NNC(=O)c3ccccc3C)CC2)n1	40
CCN1CCN(C(c2cccs2)C(C)NC(=O)NC2CCCCC2)CC1 (stereo not drawn)	40
C=CCN=C1SC(CC)C(=O)N1S(=O)(=O)c1ccc(C)cc1 (stereo not drawn)	40
COc1ccc(NC(=O)CC(C(=O)O)N2CCCCC2)cc1 (stereo not drawn)	0
NC(=O)CN1C2CCC1CC(NC(=O)C1CC1)C2 (stereo not drawn)	0
COCC(C)n1c(SCc2ccc(C(=O)OC)o2)nc2ccccc2c1=O (stereo not drawn)	0
CCOC(=O)c1cnc2ccc(C)cc2c1Sc1ccccc1	0
Cc1ccc(NC(=O)C(C)c2ccc(-c3ccccc3)c(F)c2)cc1 (stereo not drawn)	0
CCOC(=O)N1CCN(c2c(NCCc3ccc(OC)c(OC)c3)c(=O)c2=O)CC1	0
CN1CCN(C2=C(Cl)C(=O)N(c3ccc(Cl)cc3)C2=O)CC1	0
COCCn1c(SCC(=O)Nc2ccccc2)nc2c1c(=O)[nH]c(=O)n2C	0
O=C(O)CC(NC(=O)c1ccccc1NC(=O)c1ccccc1)C(=O)O (stereo not drawn)	0
CCOC(=O)C1CCN(C(=O)COC(=O)COc2ccccc2OC)CC1	?
Cc1ccc2nc(C3CCCN(C(=O)NCc4ccccc4)C3)[nH]c2c1 (stereo not drawn)	0
COC(=O)c1[nH]c2cc(OC)ccc2c1NC(=O)CCN1CCN(c2ccccc2)CC1	40
COC(=O)c1cn(Nc2ncc(C(F)(F)F)cc2Cl)c(=O)c2ccccc12	40
Next records
SMILES	quorum sensing
CCn1cc(C(=O)NCc2ccccc2OC)c(=O)c2cc(S(=O)(=O)N(C)C)ccc21	0
Cc1noc(/C=C/N(C)C)c1S(=O)(=O)N1CCCC(C(=O)N2CCCCC2)C1 (stereo not drawn)	40
CC(=O)CC(c1ccccc1)S(=O)(=O)c1ccc(C)cc1 (stereo not drawn)	40
CCSC1=C(C#N)C(c2cccc(OC)c2)CC(=O)N1 (stereo not drawn)	40
COc1ccc(NC(=O)CN(c2cc(C)cc(C)c2)S(=O)(=O)c2c(C)n[nH]c2C)cc1	40
C=CCOc1ccc(C2C(C(=O)c3ccco3)=C(O)C(=O)N2Cc2cccnc2)cc1 (stereo not drawn)	40
CCCCCOc1ccc(C2NC(=O)NC2=O)cc1 (stereo not drawn)	40
Nc1nc(Nc2cccc(F)c2)nc2ccccc12	40
COC(=O)c1ccc(C(C(=O)NC2CCCCC2)N(C(=O)Cc2cccs2)C2CC2)cc1 (stereo not drawn)	0
O=C(O)CCCC[C@@H]1SC[C@@H]2NC(=O)N[C@@H]21	0[10 µg/mL]
COc1ccccc1NC(=O)C1C2C=CC3(CN(Cc4cccnc4)C(=O)C13)O2 (stereo not drawn)	40
COc1ccc(NC(=O)CN2CCN(Cc3ccc4c(c3)OCO4)CC2)cc1OC	0
O=C(O)Cc1ccc(C(=O)c2ccccc2F)s1	0
COC(=O)CCCNC(=O)OCc1ccc([N+](=O)[O-])cc1	0
CCOc1ccc(-c2nc(C#N)c(N3CCCCCC3)o2)cc1	0
C#CCSc1nnc(-c2sc3ccccc3c2Cl)o1	0
O=C(CN1CCN(Cc2ccccc2F)C1=O)NCCN1CCOCC1	0
Cc1c(CN2CCCCC2)c(O)n(CCCO)c(=O)c1C#N	0
Cc1ccc(CN2CCN(CC(=O)NC(C)CCc3ccccc3)C2=O)cc1 (stereo not drawn)	40
COC(=O)c1ccc(-n2c(C)nc3ccccc3c2=O)cc1	0
CC(C)(C)c1ccc(C(O)CCCN2CCC(C(O)(c3ccccc3)c3ccccc3)CC2)cc1 (stereo not drawn)	0[10 µg/mL]
CC(C)(C)NC(=O)C12CCC(C)(c3nc4ccccc4nc31)C2(C)C (stereo not drawn)	0
O=C(NCc1cccs1)C1CCCN(S(=O)(=O)c2cnc[nH]2)C1 (stereo not drawn)	0
O=C(Oc1csc(=S)n1C(=O)c1ccccc1)c1ccccc1	0
O=C(O)CSc1nnc(-c2ccc3c(c2)OCO3)o1	0

2 consecutive entries from above:
SMILES	quorum sensing
O=C(Oc1csc(=S)n1C(=O)c1ccccc1)c1ccccc1	0
O=C(O)CSc1nnc(-c2ccc3c(c2)OCO3)o1	0

The list goes on:
SMILES	quorum sensing
Cn1c2ccccc2c2c(C(=O)NCC3CCCO3)cn(C3CCCC3)c(=O)c21 (stereo not drawn)	160
O=C(NC1CCCCC1)N1CCSC1=Nc1ccccc1	0
C=CCn1c(O)c(C2=c3ccccc3=NC2=O)s/c1=N/c1nccs1	320
CCCCN(CCCC)Cc1cc2ccccc2c2c1COC2	0
Cc1ccc(C)c2[nH]c(=O)c(CCNC(=O)c3ccc(S(=O)(=O)N(C)C)cc3)cc12	0
C=CCSc1nnnn1-c1ccc(OC)cc1	0
CC1=CC(C)(C)N(C(=O)C(C)N2C(=O)c3ccccc3C2=O)c2c(C)cc(C)cc21 (stereo not drawn)	40
CCOc1ccc(S(=O)(=O)N(CC(=O)Nc2cc(C)on2)Cc2ccccc2Cl)cc1	0
O=C(Cn1cnc2c(nnn2-c2ccccc2)c1=O)NCc1ccco1	0
COCCn1c(CN(Cc2ccccc2)Cc2ccccc2)nc2c1c(=O)n(C)c(=O)n2C	0
O=C(CSc1nc2c([nH]c3ccccc32)c(=O)n1-c1ccccc1)N1CCOCC1	0
CCOC(=O)c1sc(-c2ccccc2)cc1NC(=O)CSc1nnnn1C	0
CC(C)(C)c1ccc(C(=O)CSc2ncn[nH]2)cc1	0
O=C(Cc1cccs1)NCc1ccccc1	40
O=c1cc(NC2CCCCC2)c2ccccc2o1	0
COc1cc(C2c3c(oc4ccccc4c3=O)C(=O)N2c2ccc(C)cn2)ccc1O (stereo not drawn)	0
CCN1CCN(CC(O)COc2ccc(C(C)=O)cc2)CC1 (stereo not drawn)	0
COc1ccc(C2CC(c3cccc(C)c3)n3ncnc3N2)cc1 (stereo not drawn)	200
O=C(NCCCN1CCCC1=O)c1ccc2c(c1)NC(=O)C(N1CCOCC1)S2 (stereo not drawn)	0
Cc1nc2c3ccccc3n(CCN3CCCCC3)c2s1	40
Nc1nc2c(c(=O)[nH]1)N(C=O)C(CNc1ccc(C(=O)N[C@@H](CCC(=O)O)C(=O)O)cc1)CN2 (stereo partly drawn)	40[10 µg/mL]
CC1(c2ccccc2)NC(=S)N2C1NC(=S)N2c1ccccc1 (stereo not drawn)	0
CS(=O)(=O)Nc1ccc(C(=O)Nc2ccccc2C(=O)N2CCCC2)cc1	40
Cc1ccc2cc3c(NC(=O)C4CCCO4)nn(CC(C)C)c3nc2c1 (stereo not drawn)	40
CCN(CC)S(=O)(=O)c1ccc(OCC(=O)NCc2ccccc2)cc1	0

Shown in CSV form: 16 of the compounds above
smiles,quorum sensing
CC(=O)CC(c1ccccc1)S(=O)(=O)c1ccc(C)cc1 (stereo not drawn),40
CCSC1=C(C#N)C(c2cccc(OC)c2)CC(=O)N1 (stereo not drawn),40
COc1ccc(NC(=O)CN(c2cc(C)cc(C)c2)S(=O)(=O)c2c(C)n[nH]c2C)cc1,40
C=CCOc1ccc(C2C(C(=O)c3ccco3)=C(O)C(=O)N2Cc2cccnc2)cc1 (stereo not drawn),40
CCCCCOc1ccc(C2NC(=O)NC2=O)cc1 (stereo not drawn),40
Nc1nc(Nc2cccc(F)c2)nc2ccccc12,40
COC(=O)c1ccc(C(C(=O)NC2CCCCC2)N(C(=O)Cc2cccs2)C2CC2)cc1 (stereo not drawn),0
O=C(O)CCCC[C@@H]1SC[C@@H]2NC(=O)N[C@@H]21,0[10 µg/mL]
COc1ccccc1NC(=O)C1C2C=CC3(CN(Cc4cccnc4)C(=O)C13)O2 (stereo not drawn),40
COc1ccc(NC(=O)CN2CCN(Cc3ccc4c(c3)OCO4)CC2)cc1OC,0
O=C(O)Cc1ccc(C(=O)c2ccccc2F)s1,0
COC(=O)CCCNC(=O)OCc1ccc([N+](=O)[O-])cc1,0
CCOc1ccc(-c2nc(C#N)c(N3CCCCCC3)o2)cc1,0
C#CCSc1nnc(-c2sc3ccccc3c2Cl)o1,0
O=C(CN1CCN(Cc2ccccc2F)C1=O)NCCN1CCOCC1,0
Cc1c(CN2CCCCC2)c(O)n(CCCO)c(=O)c1C#N,0

Other compounds:
SMILES	quorum sensing
CCOc1ccc(N(CC(=O)NC2CCCC(C)C2C)S(=O)(=O)c2c(C)noc2C)cc1 (stereo not drawn)	40
COc1cccc2c(=O)n(CC(=O)N3CCc4ccccc43)ccc12	40
CN1[C@@H]2CC(OC(=O)[C@H](CO)c3ccccc3)C[C@H]1[C@@H]1O[C@@H]12 (stereo partly drawn)	0[10 µg/mL]
Cc1cc2n(n1)C(c1cn(-c3ccccc3)nc1C)Nc1ccccc1-2 (stereo not drawn)	0
Cn1c(C(=O)NCCN2CCc3ccccc3C2)cc2c(=O)n(C)c3ccccc3c21	40
COc1cc2c3nnc(-c4ccc(F)cc4)c-3cn(Cc3cccc(C)c3)c2cc1OC	0
FC(F)(F)c1cc(-c2ccco2)nc(N2CCN(c3ccccc3)CC2)n1	40
COc1ccc(N2CCN(C(=O)CC(NC(N)=O)c3cccc(Oc4ccccc4)c3)CC2)cc1 (stereo not drawn)	0
CN1CCN(C(=O)Cn2c(=O)oc3cc(S(=O)(=O)NCc4ccccc4)ccc32)CC1	0
COc1ccc(CCNC(=O)c2ccn[nH]2)cc1OC	0
O=c1[nH]cnc2c1sc(=S)n2-c1ccccc1	0
CC1Cc2ccccc2N1C(=O)CN(C)S(=O)(=O)c1cccc2cccnc12 (stereo not drawn)	40
Cc1ccc(N(CC(=O)Nc2cc(Cl)ccc2Oc2ccccc2)S(C)(=O)=O)cc1C	0
c1ccc(OCCOCCN2CCOCC2)cc1	0
COc1cccc(C(=O)Nc2cc(=O)n(C)c(=O)n2C)c1OC	40
CC(=O)c1cccc(NC(=O)C2CCCN2S(=O)(=O)c2cccc3cccnc23)c1 (stereo not drawn)	280
Cc1ccc(S(=O)(=O)c2nc(-c3cccs3)oc2SCC(N)=O)cc1	0
O=C1/C(=C/c2ccccc2)Nc2ccccc21	40
CC(OC(=O)c1cc2sccc2n1C)C(=O)NCCc1ccccc1 (stereo not drawn)	0
CCOC(=O)C(=O)Nc1ccc(F)cc1	40
O=C(C1CCN(S(=O)(=O)N2CCC3(CC2)OCCO3)CC1)N1CCc2ccccc2C1	0
CCCSc1nc2c(cnn2-c2ccc(C)c(C)c2)c(=O)[nH]1	40
O=C(CC(=O)c1ccccc1)Nc1ccc2c(c1)OCCO2	40
Cn1c(=O)[nH]c(=O)c2c1nc(N1CCN(c3cccc(Cl)c3)CC1)n2CCCc1ccccc1	0
COc1ccc(C2c3c(oc4ccccc4c3=O)C(=O)N2c2ccc(C)cn2)cc1OC (stereo not drawn)	40
Carrying on:
SMILES	quorum sensing
CCCn1nnnc1-c1cccc(Cl)c1	40
CCOC(=O)c1cnn(-c2nc(-c3ccc(F)cc3)cs2)c1C(F)(F)F	0
CCOC(=O)C1CCCCN1C(=O)CCc1c(C)nc2cc(-c3ccccc3)nn2c1C (stereo not drawn)	0
CCNC(=S)N(Cc1ccc2c(c1)OCO2)C1CC(=O)N(c2ccc(OC)cc2)C1=O (stereo not drawn)	0
Cc1ccc(NN2C(=O)C=C(c3ccc(Cl)cc3)C2=O)cc1	80
Cn1c(=O)c2c(nc(N3CCCCCC3)n2CCSc2nc3ccccc3o2)n(C)c1=O	0
CCOc1ccc(NC(=O)C2CC(=O)N(c3cc(C)cc(C)c3)C2)cc1 (stereo not drawn)	0
Cc1[nH]c2ccccc2c1SCC(=O)N1CCN(c2ccccc2)CC1	0
Cc1cc2c(cc1S(N)(=O)=O)S(=O)(=O)CCC2	0[10 µg/mL]
CCc1ccc(N/C(SCc2cccc(F)c2)=C(/C#N)C(=O)NCc2ccco2)cc1	0
O=C(COc1ccc(F)cc1)Nc1nccs1	?
O=P(O)(O)C(O)C(F)(F)C(F)(F)C(F)(F)C(F)F (stereo not drawn)	0
Cc1ccc(N(CC(=O)NCc2ccc3c(c2)OCO3)S(=O)(=O)c2c(C)noc2C)cc1	0
O=S(=O)(NCCc1csc(-c2cccnc2)n1)c1ccc2c(c1)OCCO2	0
CCc1cc(C(N)=S)ccn1	0[10 µg/mL]
CCCc1cc(-n2cnc3ccccc32)n2c(nc3ccccc32)c1C#N	0
Cc1nc(-c2cccc(NS(=O)(=O)c3ccccc3)c2)cs1	160
Cc1cc(C)cc(NC(=O)C2CCCN(c3nccc(C)n3)C2)c1 (stereo not drawn)	320
CCN(N=Nc1cccc([N+](=O)[O-])c1)c1cccc([N+](=O)[O-])c1	0
CCC(C)(C)C(=O)O[C@H]1C[C@@H](C)C=C2C=C[C@H](C)[C@H](CC[C@@H]3C[C@@H](O)CC(=O)O3)[C@H]21	0[10 µg/mL]
CC1=CC(=O)C2=C(C)CC[C@@H]3[C@H](OC(=O)[C@H]3C)[C@@H]12	0[10 µg/mL]
COc1cccc(NC(=O)c2nc3nc(C)cc(C(F)F)n3n2)c1	0
CC[N+](CC)(CC(=O)Nc1c(C)cccc1C)Cc1ccccc1	0[10 µg/mL]
CC(C)CN1C(=O)NC(NC(=O)c2cccs2)(C(F)(F)F)C1=O (stereo not drawn)	40

Source: PubChem BioAssay (Southern Research Specialized Biocontainment Screening Center)
